TRPML1 inh = qHTS for Inhibitors of the Human Mucolipin Transient Receptor Potential 1 (TRPML1); TRPML1-inducible cells, Ca2+ dye fluorescence, FDSS; active compounds read low; inhibition of EC80 agonist-evoked calcium signal; activity change, negative = inhibition, % (concentration not given with the values); AID 624415, 2012; 390,000 compounds, 0.02% hits; in the data active means activity change below about -50%; inconclusive means about -30% to -50%; inactive means above about -30%;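 also: stimulus is agonist 54-4 at its EC80 concentration; % is scaled to controls: 0 for no effect and ±100 for the full control effect; the text of the record puts the active cut at -80%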
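TRPML1-DL cells, Tet-induced overnight (~16 h, 37 °C) at 1,500 cells/well, were loaded with Ca8 no-wash dye plus quencher for 45-90 min at room temperature. Compounds were pinned during FDSS kinetic reading; agonist 54-4 at EC80 (4 uM final) then added.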
PINK1 expr mod = A Quantitative High throughput Screen to Identify Chemical Modulators of PINK1 Expression; Potency, µM (series often up to 76.6 µM), without a hit: top-dose activation (PINK1 increase), most hits filed as activators; PINK1 immunofluorescence, high-content cytometry, 24 h; 410,000 compounds, 0.2% hits; active = well fitted activation curve with a large enough effect; inconclusive = small, poorly fitted or top-dose-only effect; inactive = flat fitted curve, though single readings scatter; cell line not stated here;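 also: potency is read from the fitted curve at half-maximal effect; % of control where 0% means no effect; nearly all actives have a fitted effect of over 65% in size; a mitochondrial uncoupler was the plate control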
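Fluorescence from anti-PINK1 antibody, together with nuclear and cell stains, was scanned on a laser-scanning cytometer. Before staining, stable-line cells were incubated 24 hours with compounds at 5 concentrations; primary antibody 12 h at 10 degrees C.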
Six1-Eya2 inh = qHTS Assay for Inhibitors of the Six1/Eya2 Interaction; Homeobox protein SIX1 (Homo sapiens) + Protein phosphatase EYA2 (Homo sapiens), …; AlphaScreen GST-Six1/His-Eya2 binding, biochemical; active compounds read low; control for the full effect not named in the record; activity change, % (concentration not given with the values); 360,000 compounds, 0.56% hits; in the data active = activity change below about -65%; inconclusive = about -30% to -65%; inactive = above about -30%; also: % is scaled to controls: 0 for no effect and ±100 for the full control effect
Target sequence (O00167 whole entry, looked up): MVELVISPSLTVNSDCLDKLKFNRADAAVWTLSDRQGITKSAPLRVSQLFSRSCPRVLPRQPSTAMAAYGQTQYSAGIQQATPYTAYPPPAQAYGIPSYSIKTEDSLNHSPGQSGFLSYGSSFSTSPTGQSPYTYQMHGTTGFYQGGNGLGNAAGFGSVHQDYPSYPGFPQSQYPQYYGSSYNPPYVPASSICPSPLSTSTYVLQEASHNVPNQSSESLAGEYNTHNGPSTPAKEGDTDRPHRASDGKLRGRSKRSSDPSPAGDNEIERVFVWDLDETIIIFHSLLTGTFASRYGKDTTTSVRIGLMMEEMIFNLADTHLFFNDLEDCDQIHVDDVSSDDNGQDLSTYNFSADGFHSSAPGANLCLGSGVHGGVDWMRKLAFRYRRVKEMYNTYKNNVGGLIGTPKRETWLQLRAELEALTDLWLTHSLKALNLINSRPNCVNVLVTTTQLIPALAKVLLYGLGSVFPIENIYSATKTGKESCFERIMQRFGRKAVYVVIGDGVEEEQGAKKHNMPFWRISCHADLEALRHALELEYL
Target sequence (Q15475 whole entry, looked up): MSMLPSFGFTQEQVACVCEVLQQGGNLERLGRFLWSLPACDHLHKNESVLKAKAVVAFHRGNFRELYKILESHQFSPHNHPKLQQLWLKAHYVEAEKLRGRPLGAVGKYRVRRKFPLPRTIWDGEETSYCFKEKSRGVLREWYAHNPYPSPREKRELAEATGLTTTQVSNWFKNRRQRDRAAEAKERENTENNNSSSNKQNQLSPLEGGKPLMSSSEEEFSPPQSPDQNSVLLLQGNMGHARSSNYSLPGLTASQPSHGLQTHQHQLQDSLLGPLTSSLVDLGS
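AlphaScreen with GST-Six1 and His-Eya2 (5X mix: 250 nM and 500 nM), glutathione donor and nickel acceptor beads; buffer 50 mM Tris pH 8.0, 300 mM NaCl, 1 mM TCEP; 1 h at 37 C in the dark.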
CtBP-E1A inh = qHTS Assay for Inhibitors of the CtBP/E1A Interaction. activity change, % (no concentration beside the values). AlphaScreen GST-E1A/His-CtBP binding, 1536-well; active compounds read low; control for the full effect not named in the record. CtBP / adenovirus E1A interaction (AlphaScreen). 340,000 compounds, 0.49% hits; in the data active means activity change below about -65%; inconclusive means about -30% to -65%; inactive means above about -30%; also: % is scaled to controls: 0 for no effect and ±100 for the full control effect
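AlphaScreen with 125 nM GST-E1A and 125 nM His-CtBP (5X stocks) in Tris pH 8.0, 300 mM NaCl, BSA, Tween 20, TCEP. Compounds preincubated 2 h at 37 deg C, then glutathione donor/nickel acceptor beads added for 1 h at 37 deg C in dark.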
D2 ag = Beta-Arrestin HTS for Positive Allosteric Modulators of the Human D2 Dopamine Receptor: Agonists. 360,000 compounds, 0.084% hits. D(2) dopamine receptor (Homo sapiens), P14416. DiscoveRx PathHunter D2 beta-arrestin, luminescence, 90 min; 100% = 57 uM dopamine signal. AID 624465, 2012. activation, % (no concentration beside the values); in the data active = activation above about 40%; inconclusive = about 15% to 40%; inactive = below about 15%; also: compound concentration not given in the record; the text of the record calls up to 30% inactive
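Agonist mode: compounds alone added to overnight-plated D2 PathHunter cells for 90 min at 37 C, with 57 uM final dopamine (EC100) defining full response. Beta-arrestin recruitment detected by chemiluminescent reagent, read after 1 h at ambient temperature.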
TRPML1 ag = qHTS for Agonists of the Human Mucolipin Transient Receptor Potential 1 (TRPML1). 410,000 compounds, 0.12% hits. TRPML1-expressing cells, Ca2+ dye fluorescence, FDSS; host cell line not named in the record; reference of the full effect not given here. Mucolipin-1 (Homo sapiens), Q9GZU1. activation, % (test concentration not listed); in the data active = activation above about 50%; inconclusive = about 30% to 50%; inactive = below about 30%; also: 0% is about no effect; the text of the record puts the active cut at 80%
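Tetracycline-induced TRPML1-DL cells are seeded and incubated overnight before loading with a no-wash Ca2+ dye and quencher. Agonist activity is taken from the 110 s fluorescence read following compound pin-transfer on an FDSS, before EC80 54-4 challenge.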
* marks the source's active call; other numbers are inactive results; ? = inconclusive; . = not tested or not shown; & = joins results of further samples; [ ] = dose if it differs, or a comment.

SMILES	TRPML1 inh	PINK1 expr mod	Six1-Eya2 inh	CtBP-E1A inh	D2 ag	TRPML1 ag
NCCOc1ccc(C2CCCCC2)cc1	-3.4	19.6%	6.1	1.8	-4.4	-0.7
CC(C)(C)OC(=O)N1CCN(C(=O)c2[nH]cnc2C(=O)Nc2ccc(Cl)cc2)CC1	7.3	3.1%	2.4	-1.2	-1.2	-0.9
N#Cc1ccc(C(=O)Nc2ccccc2-c2nc3ccccc3s2)c(F)c1	3.7	-0.2%	.	.	.	0.6
COc1ccc2nc(NC(=O)CCNC(=O)c3ccccc3Cl)sc2c1	6.1	-1.0%	1.6	4.5	-5.3	-0.7
O=C(CC1C(=O)N(c2ccc(Cl)cc2)C(=S)N1CCc1ccncc1)Nc1ccc(F)cc1 (stereo unspecified)	19.3	?	15.1	40.0	1.7	1.5
COc1cc(OC)c(C2=NOC(C(=O)Nc3ccc4c(c3)OCO4)C2)cc1Cl (stereo unspecified)	-28.9	0.0%	-20.4	7.3	0.6	0.0
O=C(Oc1ccc(=O)n(-c2ccccc2)n1)c1cccc(Cl)c1	26.4	-1.4%	12.0	-2.2	-3.0	1.2
Cc1nc(N2CCOCC2)c2c(C(=O)N3CCN(c4ccccc4)CC3)c(C)oc2n1	10.6	-2.6%	.	.	.	0.9
Cc1ccc(C(=S)N2CCN(Cc3ccccc3)CC2)cc1	3.8	0.8%	-5.8	5.8	1.6	2.8
Cc1n[nH]c(=S)n1/N=C/c1ccc(-c2ccc(Cl)cc2)o1	9.3	?	-2.4	7.1	-1.6	6.0
CN1CCN(c2ccccc2NC(=O)C(Cc2ccccc2)n2cccc2)CC1 (stereo unspecified)	9.4	0.4%	-5.4	-28.8	-2.3	1.4
COc1cc(/C=N/NC(=O)c2csc3c2CCCC3)cc(OC)c1O	18.9	3.9%	-21.9	-22.2	1.3	0.5
CCCCSCCCNC(=O)C1CCC(CNS(=O)(=O)c2ccc(NC(C)=O)cc2)CC1 (stereo unspecified)	-12.3	0.7%	0.2	0.9	-7.1	-0.3
O=C(NC1CCCCCC1)c1ccccc1-c1ccccc1	-8.6	2.7%	4.6	-4.8	-2.9	3.5
O=C(O)C=C1CCN(c2ncc(C(F)(F)F)cc2Cl)CC1	20.7	0.3%	5.5	1.7	-0.3	4.1
COc1ccccc1CNC(=O)CCCn1nc(C)c2c(C)n(-c3ccccc3)nc2c1=O	15.0	0.3%	-5.9	-12.3	5.0	1.7
O=C(Cn1ncc2c(=O)oc3ccccc3c21)N1CCN(c2ccc(Cl)cc2)CC1	11.5	1.6%	.	.	.	-0.9
CCCCNC(=O)NCCN1CCOCC1	-21.3	-1.4%	0.9	13.0	-1.4	1.2
CC(OC(=O)c1nsc(Cl)c1Cl)C(=O)NCc1cccs1 (stereo unspecified)	2.1	0.9%	-0.3	1.1	-3.5	-0.9
C/C(=N\Nc1cccc([N+](=O)[O-])c1)c1cc2ccccc2o1	13.8	9.7%	-0.7	.	-2.5	1.3
COCCNC(=O)c1onc(CSc2ccc(F)c(F)c2)c1C(=O)NCCOC	-15.4	2.5%	2.4	.	1.1	-0.6
Cc1cccc(NC(=O)CN2C(=O)COc3ccc(S(=O)(=O)Nc4ccccc4)cc32)c1C	6.7	1.6%	.	.	.	1.2
C=CCOC(=O)C1=C(C)NC(=S)C(C#N)(CC=C)C1c1ccccc1Cl (stereo unspecified)	6.4	16.8%	5.3	.	-4.8	2.6
Cc1cc(OCC(=O)OCC(=O)NCc2cccs2)ccc1Cl	31.5	3.0%	-5.1	6.2	-2.9	1.6
COc1ccccc1-c1nc(SCC(=O)Nc2ccccc2F)n[nH]1	2.7	6.4%	2.0	2.8	-2.2	0.8
O=C(NC(=S)NNC(=O)[C@H]1C[C@@H]1c1ccccc1)c1cccc(F)c1	11.8	5.4%	3.7	6.2	-5.1	-0.2
CCC(=O)Nc1cc(-c2nn(C)c(=O)c3ccccc23)ccc1N1CCOCC1	-20.1	2.2%	-0.6	0.5	-2.2	1.8
CN(C)CCOC(=O)c1ccc(COc2ccccc2Br)o1	-5.1	-0.6%	0.8	-1.8	-0.4	2.7
O=C(Nc1cc(C(F)(F)F)ccc1N1CCOCC1)c1cccc(S(=O)(=O)N2CCOCC2)c1	-7.5	0.1%	2.4	2.2	-3.0	-1.3
OCC(CO)(CO)N=Cc1c(O)ccc2ccccc12	-3.4	4.4%[38.3 µM]	4.5	8.6	8.4	-0.1
CC1CCN(c2cc(N3CCOCC3)c(F)cc2[N+](=O)[O-])CC1	37.2	-0.9%	-15.7	-14.2	-2.2	5.7
O=C(CCN1CCCC1=O)NC1CCCc2c1cnn2-c1ccc(F)cc1F (stereo unspecified)	1.3	1.0%	1.5	1.6	0.3	-0.4
Cc1cc(C)n(C(=O)c2cccc(S(=O)(=O)N3CCCC3)c2)n1	-13.5	?	-1.5	5.3	-2.5	0.0
CN(C)c1ccc(/C=N/N2C(=O)c3ccccc3C2=O)cc1	-9.4	-0.8%	-12.6	-1.4	-0.4	-0.3
Cc1cc2[nH]c(=O)c(=O)[nH]c2cc1S(=O)(=O)N1CCN(c2cccc(C(F)(F)F)c2)CC1	9.2&9.8	7.4%&8.7%	-20.3	.	4.0	0.5&4.6
O=C(Cn1ncc2c1-c1ccccc1OC2)Nc1ccc(S(=O)(=O)N2CCCCC2)cc1	-10.1	1.3%	-25.5	?	-3.1	-0.3

Shown with each value named: 3 of the compounds above
COc1ccccc1-c1nc(SCC(=O)Nc2ccccc2F)n[nH]1
  TRPML1 inh: 2.7
  PINK1 expr mod: 6.4%
  Six1-Eya2 inh: 2.0
  CtBP-E1A inh: 2.8
  D2 ag: -2.2
  TRPML1 ag: 0.8

O=C(NC(=S)NNC(=O)[C@H]1C[C@@H]1c1ccccc1)c1cccc(F)c1
  TRPML1 inh: 11.8
  PINK1 expr mod: 5.4%
  Six1-Eya2 inh: 3.7
  CtBP-E1A inh: 6.2
  D2 ag: -5.1
  TRPML1 ag: -0.2

CCC(=O)Nc1cc(-c2nn(C)c(=O)c3ccccc23)ccc1N1CCOCC1
  TRPML1 inh: -20.1
  PINK1 expr mod: 2.2%
  Six1-Eya2 inh: -0.6
  CtBP-E1A inh: 0.5
  D2 ag: -2.2
  TRPML1 ag: 1.8

Additional records.
SMILES	TRPML1 inh	PINK1 expr mod	Six1-Eya2 inh	CtBP-E1A inh	D2 ag	TRPML1 ag
CC(C)Cc1nnc(NC(=O)C2=COCCO2)s1	5.9	-1.5%	-2.7	5.4	-3.0	-0.5
CCc1ccc(C(=O)N2CCN(S(=O)(=O)c3sc(C(=O)O)c(C)c3C(=O)O)CC2)cc1	6.6	0.8%	6.0	8.3	-2.1	0.0
COc1ccc(-n2c(Cc3cccn3C)nnc2SCC(=O)Nc2cc(Cl)ccc2OC)cc1	4.3	-3.1%	-15.5	-11.7	-4.2	0.3
Cc1ccc(C)c(NC(=O)COC(=O)CCc2ccc(S(=O)(=O)N3CCOCC3)cc2)c1	-7.7	0.2%	7.9	-21.0	-0.2	0.5
CCOc1ccc(NC(=O)COC(=O)C23CC4CC(CC(C4)C2)C3)c([N+](=O)[O-])c1	4.8	5.2%	-17.3	-18.6	-6.9	-1.4
CN1C[C@@H]2[C@@H]3C(=O)N(Cc4ccccc4)C(=O)[C@@H]3[C@](C)(C1=O)N2C(=O)c1ccccc1	1.3	0.5%	6.6	2.9	-1.9	-0.3
c1ccc2c(C3OCC4(CCCC4)CO3)cccc2c1	-15.9	11.3%	30.5	0.0	1.3	-0.5
NC(=O)C1(N2CCCCC2)CCN(S(=O)(=O)c2ccc(Cl)s2)CC1	-0.3	0.7%	16.1	-3.9	7.3	-0.7
COc1cccc(NC(=O)COC(=O)c2ccc(S(=O)(=O)NCc3ccco3)cc2)c1	-1.4	-2.8%	-8.8	-0.3	-1.9	-0.7
CC1(C(=O)NS(=O)(=O)c2ccccc2Cl)CCN1C(=O)C1CCCCC1 (stereo unspecified)	.	2.1%	13.7	-10.0	-1.6	0.0
Cc1nc2ccc(S(=O)(=O)N(C)CC(=O)Nc3ccccc3F)cc2s1	-2.1	1.9%	-0.6	5.2	-1.0	-0.7
CC(C)(C)NC(=O)CN(C(=O)CCC(=O)Nc1nccs1)c1ccc(F)cc1	-3.2	0.7%	-0.2	13.5	-3.8	0.2
O=C(Nc1ccccc1F)c1oc2ccccc2c1NC(=O)C1CC1	22.3	3.5%	3.9	-17.2	2.5	0.8
O=C(OCC(=O)N1CCOCC1)c1ccc(Br)cc1	-16.9	-0.1%	1.7	-2.9	-0.8	0.7
Cc1ccc(S(=O)(=O)N(CC(=O)NCCSc2ccccn2)c2ccc(C)c(C)c2)cc1	-9.1	-0.5%	-2.2	5.8	-2.7	1.2
O=C(CN1CCN(S(=O)(=O)N2CCCCC2)CC1)Nc1cc(Cl)cc(Cl)c1	10.2	4.2%	2.8	16.8	-3.7	-0.8
C[C@H](O)[C@@H]1C(=O)N2CCc3ccc(-c4ccccc4)cc3[C@@H]2C[C@@H]1N(C)C(=O)c1cccnc1	1.3	3.7%	0.0	4.1	-6.7	-0.5
Cc1ccc(C(=O)N/N=C\c2cccs2)cn1	-15.7	-0.7%	12.7	13.2	2.4	0.8
CN(C)CCOC(=O)NCC12CC3CC(CC(C3)C1)C2	3.7	-2.0%	-6.2	4.2	-4.0	0.2
O=C(NNS(=O)(=O)c1ccc2ccccc2c1)c1cccs1	-16.9	0.1%	-3.8	11.0	-5.6	0.0
Cc1c(NC(=O)OCCNC(=O)COc2ccc(Cl)cc2Cl)sc(=S)n1C	-4.0	0.4%	-7.0	?	-1.5	-0.7
O=C1C=C(c2cccnc2)CCC1	-4.5	-1.1%	3.0	6.1	-0.5	-0.8
O=C(COc1ccccc1)NC1CCSc2ccccc21 (stereo unspecified)	-2.6	2.4%	-11.0	5.3	0.9	-1.3
Cc1onc(-c2ccccc2Cl)c1C(=O)N(Cc1ccc(N(C)C)cc1)C(C)C	-12.4	0.5%	-4.8	.	5.4	0.8
O=C(CN1C(=O)COc2ccccc21)NCCN1CCOCC1	-4.8	-0.3%	5.7	2.4	-3.3	0.5
CC(=O)N1CCCc2cc(S(=O)(=O)N3CCCC(C(=O)Nc4ccc(C)c(C)c4)C3)ccc21 (stereo unspecified)	6.8	-0.3%	.	.	.	1.4
CC1(C)N([O-])C(c2cccs2)=C[N+]1=O	3.8	1.7%	5.5	4.5	1.5	0.2
Cc1cc(COc2ccccc2OCCN2CCN(C)CC2)no1	-11.0	-2.3%	-3.6	-3.5	-4.2	0.9
COc1ccc(-n2c(C)cc(C(=O)COC(=O)c3cc(OC)c(OC)cc3NC(=O)c3cccs3)c2C)cc1	-4.1	0.7%	-1.3	-1.7	4.5	-0.3

High-throughput results (PubChem BioAssay)
